miR-21 reporter: miR-21 reporter, rising signal; HeLa miR-21 FLuc reporter, luciferase, 48 h; Potency, µM (highest dose often 38.3 µM), for the others: at the top dose reporter change, positive = more light; 340,000 tested, under 10 active; active = well fitted rising curve with a large enough effect; inconclusive = small, poorly fitted or top-dose-only effect; inactive = no such curve, though single readings can be large or run the other way;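 note: % of control where 0% means no effect; miR-21 action dims this reporter so a rising signal means less miR-21 action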
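HeLa cells endogenously expressing miR-21, stably carrying CMV-driven firefly luciferase with a downstream miR-21 binding site, 2000 cells/well. Titrations up to approximately 40 uM, 48 hours; luciferase luminescence read.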
Rango release inh: inhibitors of RanGTP-induced Rango-importin beta complex dissociation. O95149+P62826. Biochemical FRET Rango-importin beta, RanGTP-induced dissociation. Potency, µM (top dose mostly 46.1 µM), for the others: at the highest dose activity change, negative = inhibition. 340,000 compounds, 0.071% hits. AID 540253; active means falling FRET ratio curve, often poorly fitted, with flat reads before Ran was added; inconclusive means other falling curves, or compound fluorescence or quenching; inactive means flat or rising ratio curve;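 note: potency is the fitted concentration of half-maximal effect; % of control where 0% means no effect; nearly all actives have a fitted effect of over 45% in size; -100% = wells without RanGTP and RCC1; the record marks most hits as doubtful in a second field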
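FRET read at 45 min, room temperature: inhibitors block the CFP/YFP signal rise when RanGTP (0.6 uM Ran, 2 mM GTP, 0.2 uM RCC1) frees Rango (0.1 uM) from importin beta (0.25 uM). Pre-read after 5 min compound exposure flags interference.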
GLA inh pH 4.5: alpha-galactosidase A (human) inhibition, pH 4.5; P06280; purified enzyme, 4-MU-alpha-Gal fluorescence, pH 4.5; activity change, negative = inhibition, % at 105 µM; 230,000 tested, under 10 active; AID 1467; inconclusive = small, poorly fitted or top-dose-only inhibition, or a rising curve; inactive = flat fitted curve, though single readings scatter; no compound was filed as active;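 note: 0% = full activity with enzyme and -100% = basal without enzyme; dose as in the result columns while the protocol names 77 µM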
Target sequence (P06280 whole entry, looked up): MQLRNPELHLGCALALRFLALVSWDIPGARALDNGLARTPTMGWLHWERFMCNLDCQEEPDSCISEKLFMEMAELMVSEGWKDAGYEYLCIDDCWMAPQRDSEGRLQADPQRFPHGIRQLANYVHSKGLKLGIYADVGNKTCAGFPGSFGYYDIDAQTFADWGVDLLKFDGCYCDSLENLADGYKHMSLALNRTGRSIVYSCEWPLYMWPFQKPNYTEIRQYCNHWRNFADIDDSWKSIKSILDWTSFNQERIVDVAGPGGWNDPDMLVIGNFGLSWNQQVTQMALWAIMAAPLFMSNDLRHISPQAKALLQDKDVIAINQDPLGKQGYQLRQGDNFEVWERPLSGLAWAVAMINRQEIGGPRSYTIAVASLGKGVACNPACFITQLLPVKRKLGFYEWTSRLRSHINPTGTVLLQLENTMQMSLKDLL
Rango complex inh: inhibitors of Rango-importin beta complex formation; Q14974; Rango CFP/YFP FRET sensor + importin beta, 45 min; Potency, µM (doses to about 92.2 µM), without a hit: at the top dose inhibition of complex formation; 340,000 compounds, 0.031% hits; AID 540263; active = rising FRET ratio curve, often small or poorly fitted; inconclusive = mostly compound fluorescence or quenching in the first reads; inactive = flat curves in all reads;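 note: potency is the fitted concentration of half-maximal effect; 0% = DMSO wells and 100% = buffer wells lacking importin beta; nearly all actives have a fitted effect of over 15% in size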
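FRET biosensor (snurportin 1 IBB flanked by EYFP and cerulean), 50 nM, with compound 5 min, then 0.125 microM importin beta in PBS, 1 mM DTT, 0.02% Tween-20, 0.1% BSA. CFP/YFP ratio read after 45 min at room temperature; pre-read flags interference.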
Active calls of the source: *; ? = inconclusive; / = not tested or not shown; & = joins results of further samples; [ ] = another dose, or the depositor's remark. The list is partial. The share of hits here may be higher or lower than overall.

Fields: miR-21 reporter	Rango release inh	Rango complex inh	GLA inh pH 4.5
- CCC1CCCCN1CCCCOc1cccc(Cl)c1 (stereo not given)
  -7.7%	7.0%	-2.7%	/
- O=C(CN(C(=O)c1csnn1)c1ccccc1F)NCc1ccccc1
  -3.6%	0.5%	-4.4%	/
- c1ccc(SSc2ccccn2)nc1
  /	0.8%	0.4%	/
- CCCOc1ccc(C2C(C(=O)OC)=C(C)N=C3SCCC(=O)N32)cc1OCC (stereo not given)
  -2.1%	-9.4%	2.4%	-4.2
- NNC(=O)c1cncc(Br)c1
  -0.2%	34.9%	4.4%	-3.5
- CC(OC(=O)c1ccc2ccccc2c1)C(=O)N(C)Cc1ccccc1 (stereo not given)
  /	0.1%	-4.3%	/
- CC1CN(c2nc(-c3ccc(Br)cc3)nnc2-c2ccccc2)CC(C)N1 (stereo not given)
  -17.9%	-0.2%	1.0%	-3.4
- O=C(O)c1ccc(N2C(=O)/C(=C\c3ccccc3)N=C2c2ccccc2)cc1
  -19.3%	?	?	-6.5
- COc1ccc(C2C=C(c3ccc(Cl)cc3)Nc3nc(NC(C)=O)nn32)cc1 (stereo not given)
  -1.9%	/	/	3.7
- Cc1cc(OCC(=O)NCc2ccncc2)ccc1Cl
  3.2%	22.6%	1.3%	2.8
- CCCn1cnc2c(cnn2-c2ccc(F)cc2)c1=O
  -48.3%	-23.3%	-2.1%	5.4
- COCCCN1CC23C=CC(O2)C(C(=O)O)C3C1=O (stereo not given)
  8.2%	-18.4%	-0.7%	4.1
- O=S(=O)(c1ccc(Cl)c(NC(=S)N/N=C/c2c(F)cccc2F)c1)N1CCOCC1
  1.2%	0.7%	-1.7%	-8.1
- CCOc1ccccc1C(=O)N(C)CC(=O)Nc1ccc(OC)cc1
  -3.5%	1.5%	3.0%	/
- CN(C)c1ccc(/C=N\NC(=S)SCN2C(=O)C3CCC(C)(C2=O)C3(C)C)cc1 (stereo not given)
  -35.2%	?	?	-10.9
- CC(=O)OC1C2CCC1C([N+]1(C)CCCCC1)CC2 (stereo not given)
  1.0%	-12.8%	-1.6%	7.5[21.1 µM]
- Cc1ccccc1C(=O)Nc1ccc(O)c2c(=O)cc(-c3ccccc3Cl)oc12
  -1.3%	6.8%	0.5%	1.0
- O=C(NCCCCCCCCNC(=O)c1cccc2ccccc12)c1cccc2ccccc12
  /	3.0%	-2.1%	/
- COc1ccc(S(=O)(=O)Cc2ccc(C(=O)NC3CCCCC3)o2)cc1
  -0.8%&-1.1%	-5.9%	2.9%	/
- CCOc1ccc(S(=O)(=O)NCCC(=O)N2CCN(Cc3ccccc3)CC2)cc1
  /	0.0%	-0.4%	/
- Cc1ccc(C2(C)NC(=O)N(CC(=O)c3ccc(Cl)s3)C2=O)cc1 (stereo not given)
  -4.1%	22.3%	?	-1.9
- COc1ccc(CCNC(=O)c2ccc(CS(=O)(=O)c3ccc(Br)cc3)o2)cc1OC
  ?	-5.7%	0.8%	-6.2
- COc1ccccc1NC(=O)CC1C(=O)Nc2c1c(=O)n(C)c(=O)n2C (stereo not given)
  0.5%	0.3%	-4.5%	6.9
- CCOC(=O)c1ccccc1NC(=O)c1cc2ccccc2o1
  -3.6%	-0.8%	10.9%	/
- CCCc1nc2oc3c(N4CCNCC4)ncnc3c2c2c1CCCC2
  -6.5%	/	/	-1.4
- Cc1nnc(C)n1/N=C/c1ccc(C(C)C)cc1
  -3.8%	-3.9%	-3.0%	-3.7
- Cc1ccc(NC2=CC(=O)CCC2)cc1C
  -1.9%	?	-1.7%	-6.6
- Cc1oc2ccc(OC(C(=O)O)c3ccccc3)cc2c1C(=O)O (stereo not given)
  0.4%	-11.3%	2.9%	/
- COc1ccc2c(c1)CCc1c(C(=O)N(C)c3ccccc3)noc1-2
  -50.5%	1.0%	0.4%	-2.0
- CCCCOC(=O)CCc1c(C)n[nH]c1C
  -0.3%	-0.5%	0.7%	9.5
- Cc1ccc(NC(=O)CN2C(=O)/C(=C3\SC(=S)N(C4CCS(=O)(=O)C4)C3=O)c3ccccc32)cc1 (stereo not given)
  -8.2%	30.0%	-13.0%	4.5
- Cc1ccc(NC(=O)CS(=O)CC(=O)N(c2ccccc2)C(C)C(=O)NC2CCCC2)cc1 (stereo not given)
  0.1%	2.0%	-2.6%	-14.1
- O=C(/C=C/c1cccc([N+](=O)[O-])c1)OCC(=O)N1CCOCC1
  /	1.0%	1.6%	/
- Cc1cccc(N2CCN(C(=O)CCc3nc4ccccc4c(=O)[nH]3)CC2)c1C
  /	0.4%	-1.3%	/
- COc1ccc(-c2nc(C#N)c(N3CCCCCC3)o2)cc1OC
  -13.2%	-0.4%	-4.6%	9.5
- Cc1noc(NS(=O)(=O)c2ccc(N/C=C/C(=O)c3ccc(F)cc3)cc2)c1C
  -38.1%	-4.0%	?	4.5
- N#CC1CCN(C(=O)c2ccc3c(Cl)c4c(nc3c2)CCCC4)CC1
  17.3%	12.4%	-0.2%	/
- Cc1c(C(=O)NCCN2CCOCC2)sc2nc(-c3ccc(F)cc3)cn12
  /	1.2%	0.3%	/
- CC(C)(C)c1ccc(Cn2c(=N)n(CC(O)c3ccco3)c3ccccc32)cc1 (stereo not given)
  ?	?	1.6%	-7.1
- O=C(NCc1ccccc1)c1noc2c1CCCCC2
  -37.6%	1.0%	3.9%	2.7
- COc1ccc(C2N3CC4(C)CN2CC(C)(C3)C4O)cc1 (stereo not given)
  0.2%	14.6%	-0.5%	6.8
- O=C(COc1ccc(OCc2ccccc2)cc1)NC1CCOC1=O (stereo not given)
  -2.5%	10.1%	3.8%	2.5
- Cc1cc(C)c(OCC(=O)OCC(=O)NCc2cccs2)c(C)c1
  /	-0.1%	0.6%	/
- CCN1CCN(C(=O)c2ccc(COc3cccc(Cl)c3)o2)CC1
  -9.2%	-9.8%	-0.9%	/
- O=C(CSc1nc(O)c(-c2ccccc2)c(=O)[nH]1)N1CCOCC1
  4.1%	7.5%	-1.1%	0.4
- Nc1ccc(S(=O)(=O)Nc2ccccn2)cc1
  2.2%	1.3%	0.0%	4.8&4.8&11.2
- CCc1c(C(=O)O)[nH]c2ccc(Br)cc12
  -2.3%	-6.5%	1.7%	1.1
- FC(F)Oc1ccc(NC(=S)NCC2COc3ccccc3O2)cc1 (stereo not given)
  -11.4%	-0.2%	-0.9%	1.4
- Cc1ccc(CSC(Nc2ccc(F)cc2)=C(C#N)C#N)cc1
  ?	3.1%	-3.5%	-4.3
- CC(C)C1CC(C(=O)Nc2ccccc2)C(=O)O1 (stereo not given)
  /	8.2%	3.4%	/
- Cc1noc(C)c1COc1ccccc1C(=O)NCCc1ccc(F)cc1
  /	4.6%	-1.3%	/
- COc1ccc(C(=O)OCCc2cc3ccccc3c(=O)o2)cc1
  /	?	5.9%	/
- Cc1[nH]n(C(N)=S)c(=O)c1N=Nc1cc(-c2ccc(Br)cc2)[nH]n1
  -15.2%	-8.9%	-2.4%	?
- COc1ccccc1C(=O)NNC(=O)c1cccc([N+](=O)[O-])c1
  -38.4%	18.8%	-3.6%	1.6
- COc1ccc(C(=O)NC(=S)NNC(=O)c2ccc(O)cc2)cc1[N+](=O)[O-]
  -20.5%	0.1%	-1.2%	/
- Cc1ccc(NC(=O)CN2C(=O)S/C(=C/c3ccncc3)C2=O)cc1
  1.9%	-4.6%	-0.8%	/
- CCN1CCN(CCC(=O)Nc2ccc(Br)cc2)CC1
  -6.6%	4.9%	0.6%	12.4
- CN(C(=O)CS(=O)(=O)c1cn(CC(=O)N2CCCCC2)c2ccccc12)c1ccccc1
  1.9%	-3.7%	-2.2%	/
- CCOC(=O)C1=C(C)N(C)C(=O)NC1c1c(O)ccc2ccccc12 (stereo not given)
  -6.1%	-12.1%	-1.9%	/
- Cc1ccc(N2CC(C(=O)N/N=C/c3c(F)cccc3Cl)CC2=O)cc1 (stereo not given)
  0.6%	0.7%	-1.3%	/

The list goes on.
Fields: miR-21 reporter	Rango release inh	Rango complex inh	GLA inh pH 4.5
- CCn1c(CCc2ccccc2)nnc1SCC(N)=O
  -0.2%	-5.3%	-0.3%	/
- Cc1cc(C)c(C)c(S(=O)(=O)N2CCN(C(=O)c3cc(S(=O)(=O)N4CCOCC4)ccc3F)CC2)c1C
  /	6.0%	6.1%	/
- CC(C)C(NC(=O)c1ccccc1F)C(=O)NCc1ccc(S(=O)(=O)N2CCOCC2)cc1 (stereo not given)
  /	-3.0%	9.7%	/
- CCCn1nc(C(=O)Nc2nc(-c3ccccn3)cs2)c2ccccc2c1=O
  /	-14.4%	-0.3%	/
- COc1ccc(CCC(=O)Nc2nc3ccccc3[nH]2)cc1OC
  -9.6%	4.1%	-1.4%	7.6
- CCCn1c(N)c(NCCN2CCOCC2)c(=O)n(CC(=O)NCc2ccccc2)c1=O
  1.7%	-5.2%	1.1%	2.3
- CSCCC(NC(=O)c1ccccc1)C(=O)NCc1ccco1 (stereo not given)
  -5.9%	-0.5%	-5.8%	-3.7
- O=C(CSc1nn(-c2ccc(F)cc2)c(=S)s1)NC1CCS(=O)(=O)C1 (stereo not given)
  -0.9%	-1.7%	-1.3%	-0.7
- CCC(=O)N1CCc2cc(Br)cc(S(=O)(=O)NCc3ccccc3OC)c21
  5.2%	-3.3%	0.6%	/
- COc1ccc2c(c1)O[C@@H](c1cccc(C(F)(F)F)c1)[C@H](OC(=O)Nc1ccc(OC(F)F)cc1)C2=O
  -2.6%	-22.9%	?	-8.0&-5.0
- O=C(CCOc1ccccc1)Nc1ccc(Cl)c(S(=O)(=O)N2CCOCC2)c1
  /	1.1%	0.0%	/
- Cn1cc(S(=O)(=O)N2CCN(c3cccc(C(F)(F)F)c3)CC2)c(=O)n(C)c1=O
  -0.9%	8.6%	0.6%	2.9
- Cc1ccccc1NC(=O)CON=C(N)c1ccccc1
  /	4.4%	5.9%	/
- CCOC(=O)c1cc(-c2ccccc2)n(CC2CC(c3ccc(OC)cc3)=NO2)n1 (stereo not given)
  12.5%	4.3%	4.1%	/
- CCOc1ccc(S(=O)(=O)NCCC2=CCCCC2)c2ccccc12
  -1.2%	1.0%	-0.2%	-0.1
- CCN(CC1CCCO1)C(=O)CCc1nnc(CCc2ccccc2OC)o1 (stereo not given)
  -12.5%	5.6%	0.0%	/
- Nc1ccc(C(=O)NCCCCCCNC(=O)c2ccc(N)cc2)cc1
  -8.3%	-1.9%	-0.1%	/
- CCCCCc1c(O)nc(SCCN(CC)CC)[nH]c1=O
  3.3%	8.1%	-5.1%	-4.2
- O=C(Nc1cccnc1)c1ccc(-c2ccccc2)cc1
  -58.2%	15.5%	2.8%	5.2
- CC1(C2CC2)NC(=O)N(CC(=O)Nc2ccc(Cl)c([N+](=O)[O-])c2)C1=O (stereo not given)
  /	-0.2%	4.4%	/
- O=C1OCC2=C1C(c1ccccc1)CC(=O)N2c1cccc(F)c1 (stereo not given)
  2.2%	6.1%	-2.6%	3.9[21.1 µM]
- CCOC(=O)c1c(CC(C)C)csc1NC(=O)CCl
  0.5%	-11.6%	-1.6%	-5.7
- Cc1cccc(C(=O)N2N=C(c3ccc(NS(C)(=O)=O)cc3)CC2c2cccs2)c1 (stereo not given)
  4.9%	22.0%	-0.7%	/
- COCCNC(=O)C1CCC(CNS(=O)(=O)c2c(C)cc(C)cc2C)CC1 (stereo not given)
  0.2%	-9.1%	0.6%	/
- Cc1nc2nc[nH]n2c(=O)c1NS(C)(=O)=O
  1.6%	5.4%	3.8%	1.0
- COc1ccc(NS(=O)(=O)c2cc(NC(=O)c3ccc(C)s3)ccc2N2CCOCC2)cc1
  10.1%	-5.3%	0.6%	-4.6
- CCCc1[nH]nc2c1C(c1ccccc1OC)C(C#N)=C(N)O2 (stereo not given)
  -2.5%	0.0%	-6.3%	0.3
- c1ccn2c(c1)nc1c2nc2ccccn21
  -24.4%	?	?	?
- COc1ccccc1NC(=O)COc1cccnc1[N+](=O)[O-]
  /	3.1%	2.9%	/
- Cc1cc(C)nc(N(C#N)S(=O)(=O)c2ccc(Br)cc2)n1
  0.0%	/	/	-3.0
- COc1ccccc1C=NNc1nc(C)cc(=O)[nH]1
  /	1.9%	-0.3%	/

High-throughput results as filed in PubChem BioAssay.
